# Lassa entry inh = Lassa virus entry inhibition; Lassa virus pseudotype entry inhibition, cell reporter; control for the full effect not named in the record; Potency, µM (titrated, usually from 37.9 µM), inactives show at the top dose activity change, negative = inhibition, most hits filed as inhibitors; 300,000 compounds, 1.2% hits; active means well fitted inhibition curve with a large enough effect; inconclusive means small, poorly fitted or top-dose-only effect, or effect the other way; inactive means flat fitted curve, though single readings scatter; tested in HEK293 cells; note: % is set by controls: 0 for no effect and ±100 for the full control effect; nearly all actives have a fitted effect of over 50% in size; luciferase read-out
# Cruzain noTriton = cruzain (T. cruzi) inhibition without detergent | 200,000 compounds, 2.3% hits | P25779 | Potency, µM, for the others: max response, negative = inhibition, hits mostly inhibitors | AID 1476 | purified cruzain, Z-FR-AMC fluorescence, no detergent;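 note: plate controls were enzyme without inhibitor for no effect and buffer without enzyme for full effect; nearly all actives have a fitted effect of over 40% in size; top concentration of the series not given in the record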
# Target sequence (P25779 123-467 limits assumed): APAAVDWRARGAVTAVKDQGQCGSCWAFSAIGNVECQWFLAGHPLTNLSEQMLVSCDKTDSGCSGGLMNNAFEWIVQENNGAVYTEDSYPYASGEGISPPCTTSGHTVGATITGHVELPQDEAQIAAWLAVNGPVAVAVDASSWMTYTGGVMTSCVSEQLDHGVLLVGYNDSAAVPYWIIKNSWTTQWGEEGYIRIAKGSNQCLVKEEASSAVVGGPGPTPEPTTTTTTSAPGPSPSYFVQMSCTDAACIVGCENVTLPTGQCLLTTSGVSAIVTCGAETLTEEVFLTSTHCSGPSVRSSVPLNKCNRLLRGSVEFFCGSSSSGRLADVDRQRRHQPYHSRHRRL
#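 Purified cruzain at 1.5 nM, pre-incubated 15 min with compound at room temperature in 100 mM sodium acetate pH 5.5, 5 mM DTT, 0.00005% Triton X-100. Reaction started with 2 uM Z-FR-AMC; AMC fluorescence increase over 60 s gives rate.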
# 2A StopGo = lowers the luciferase signal of an FMDV 2A StopGo reporter; human cells with a luciferase reporter of 2A StopGo recoding; control for the full effect not named in the record; Potency, µM (highest dose often 57.9 µM), without a hit: top-dose signal change, negative = less light; 410,000 compounds, 1.2% hits; active = well fitted falling curve with a large enough effect; inconclusive = small, poorly fitted or top-dose-only effect; inactive = no such curve, though single readings can be large or run the other way; tested in HEK293T cells; note: % is set by controls: 0 for no effect and ±100 for the full control effect; nearly all actives have a fitted effect of over 45% in size; luciferase light after 4 h
# MARV entry inh = Marburg virus entry inhibition | Potency, µM (titrated, usually from 37.8 µM), for the others: at the highest dose activity change, negative = inhibition, most hits filed as inhibitors | Marburg virus pseudotyped entry inhibition, cell reporter; control for the full effect not named in the record; about a third of the inactives were read at about 46 µM | 300,000 compounds, 1.8% hits; active = well fitted inhibition curve with a large enough effect; inconclusive = small, poorly fitted or top-dose-only effect, or effect the other way; inactive = flat fitted curve, though single readings scatter; tested in HEK293 cells; about a fifth of its hits are not listed in these tables; note: % is set by controls: 0 for no effect and ±100 for the full control effect; luciferase read-out
# NS1 inh = blocks influenza NS1 protein function. S. cerevisiae slowed by influenza A NS1, growth recovery by OD600. Potency, µM (series often up to 46.1 µM), without a hit: at the highest dose activity, positive = more growth. 270,000 compounds, 0.4% hits. AID 2326; active means well fitted rising curve with a large enough effect; inconclusive means small, poorly fitted or top-dose-only effect; inactive means no such curve, though single readings can be large or run the other way; note: nearly all actives have a fitted effect of over 50% in size
#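 OD600 was taken as the measure of yeast growth restored by compound in an NS1-expressing S. cerevisiae strain. Cells had been washed out of glucose medium and diluted 1:100 into galactose -URA medium, pH 6.0.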
# RE007 growth inh = less growth of the S. pombe RE007 Vpr strain | S. pombe RE007 Vpr strain, BacTiter-Glo ATP luminescence, 24 h; control for the full effect not named in the record | Potency, µM (highest dose often 92.2 µM), inactives show at the highest dose activity change, negative = less growth | 360,000 compounds, 0.21% hits; active = well fitted falling curve with a large enough effect; inconclusive = small, poorly fitted or top-dose-only effect; inactive = no such curve, though single readings can be large or run the other way;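 note: % is set by controls: 0 for no effect and ±100 for the full control effect; nearly all actives have a fitted effect of over 50% in size; the assay follows cell death caused by Vpr and the record does not say whether a fall means rescue or toxicity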
#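 Fission yeast RE007 carrying one integrated HIV-1 vpr copy, seeded at OD 0.01 in PMG+AL medium with 23 nL pinned compound. Grown 24 h at 30 degrees; viability read by BacTiter-Glo luminescence after 5 min.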
# Cruzain inh Det = cruzain (T. cruzi) inhibition with detergent; purified cruzain, Z-FR-AMC fluorescence, 0.01% Triton; 200,000 compounds, 0.43% hits; AID 1478; Potency, µM, for the others: max response, negative = inhibition, actives largely listed as inhibitors; P25779;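 note: plate controls were neutral wells for no effect and buffer without enzyme for full effect; nearly all actives have a fitted effect of over 40% in size; top concentration of the series not given in the record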
#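 Cysteine protease activity tested under reducing, mildly acidic conditions (100 mM sodium acetate pH 5.5, 5 mM DTT) plus 0.01% Triton X-100. Cruzain 1.5 nM; substrate Z-FR-AMC 2 uM; 15 min compound preincubation at room temperature.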
# SARS PLpro yeast = inhibitors of SARS-CoV papain-like protease in yeast. S. cerevisiae expressing SARS-CoV PLpro, growth rescue; control for the full effect not named in the record. Potency, µM (series often up to 32.9 µM), for the others: top-dose activity, positive = growth rescue. 330,000 compounds, 0.19% hits. AID 485353; active means well fitted rising curve with a large enough effect; inconclusive means small, poorly fitted or top-dose-only effect; inactive means no such curve, though single readings can be large or run the other way; note: 0% is about no effect; nearly all actives have a fitted effect of over 55% in size; growth read by luminescence after 48 h
# * = called active by the depositor; ? = inconclusive; / = no result given; & = joins results of further samples; [ ] = dose if it differs, or a comment. Unless noted, calls come from the whole dose curve; as a rule, active = well fitted curve in the direction sought with a large enough effect; inconclusive = small, poorly fitted or top-dose-only effect, or another doubt; inactive = no such curve, though single readings can be large; an effect the other way counts as inactive or inconclusive. Potency is the fitted concentration of half-maximal effect. Random draw from the library. About 4.7% of those tested had a hit in this group.
SMILES,Lassa entry inh,Cruzain noTriton,2A StopGo,MARV entry inh,NS1 inh,RE007 growth inh,Cruzain inh Det,SARS PLpro yeast
Cc1cc(C)n(-c2nnc(NC(C)(C)C)nn2)n1,?,6%,58%[activator],44%,-3%,/,0.4%,-8%
COc1ccccc1N1CCN(C(=O)/C=C/c2cccc([N+](=O)[O-])c2)CC1,-10%,/,?,-16%[46.1 µM],-4%,5%,/,0%
COc1ccc(CCN2CC(C(=O)N3CCC(O)(c4ccccc4)CC3)CCC2=O)cc1 (stereo unspecified),-14%,/,-24%,-1%,10%,-17%,/,2%
Cc1n[nH]c(C)c1CCN(C)Cc1cn(C)nc1-c1ccc2c(c1)OCCO2,29%[46.1 µM],/,16%,?,5%,2%,/,2%
CC(C)(C)S(=O)(=O)c1c(C(=O)O)cccc1C(=O)O,-5%,6%,1%,-5%,3%,11%,0.3%,3%
COc1ccccc1C1CCN(c2cc(O)ccc2[N+](=O)[O-])CC1,?,/,?,?,-73%,?,/,-5%
CCOC(=O)NNS(=O)(=O)c1cc(Br)ccc1Br,12%[46.1 µM],/,11%,-6%[46.1 µM],/,33%,/,-2%
CCO[C@@H]1OC(C(=O)Nc2ccccc2)=C[C@H](c2ccc3c(c2)OCO3)[C@H]1CCCO,/,/,0%,/,-4%,-2%,/,0%
Cc1cccc(C)c1NC(=O)CN(c1ccccn1)S(=O)(=O)c1ccccc1,?,/,-6%,7%[46.1 µM],/,8%,/,0%
Cn1ncc(Br)c1C(=O)NC1CCCCCC1,/,/,-19%,/,-4%,-12%,/,7%
COC(=O)[C@@]1(Cc2ccccc2)[C@H]2c3cc(C(=O)N4CCCC4)n(CCSCCO)c3C[C@H]2CN1C(=O)c1ccccc1,-11%,?,/,-24%,-27%,/,-0.9%&0.9%,-15%
CC1=C(C#N)C(NC(=O)C2CC2)(C(F)(F)F)C(=O)N1 (stereo unspecified),-14%,-8%,-10%,-2%[46.1 µM],?,-7%,-1.8%,4%
O=C1Nc2ccccc2C(O)(C(=O)NCc2ccco2)N1c1ccc(Cl)cc1 (stereo unspecified),1%,-5%,-7%,8%,-31%,-1%,3.0%,-1%
Cc1cc(/C=N\NC(=O)c2cccs2)c(C)n1-c1ccc2ncccc2c1,10µM*,?,-29%,?,-5%,4%,-11%,-8%
COc1cc(C(=O)NCC2(c3ccccc3)CCCC2)cc(OC)c1OC,/,/,-5%,/,-6%,5%,/,-2%
COc1ccc(NCC(=O)Nc2ccc(Br)cc2F)c(OC)c1,?,/,-4%,2%,-32%,-2%,/,-2%
O=[N+]([O-])c1ccc(Oc2ccc(OCc3ccccc3)cc2)nc1,-14%[46.1 µM],/,-21%,-15%[46.1 µM],3%,2%,/,-3%
CCOC(=O)c1cccc(NC(=O)CCCn2nc(C)c3c(C)n(-c4ccccc4)nc3c2=O)c1,13%[46.1 µM],1%,-25%,/,/,/,1.7%,/
COc1ccccc1NC(=O)CNC(=O)c1ccccc1C,11%,-11%,1%,22%,-12%,11%,0.9%,24%
CS(=O)(=O)N(CC(=O)N/N=C/c1ccccn1)c1ccc(Oc2ccccc2)cc1,/,/,8%,-1%,/,-4%,/,0%
COc1cccc(CNC(=S)NC2CCCC2)c1,8%,5%,15%,-4%,-8%,20%,-2.9%,?
CNC(=O)c1c(NC(=O)c2ccc(N3C(=O)CCC3=O)cc2)sc2c1CCCC2,/,/,18%,/,-3%,-18%,/,-1%
O=S(=O)(c1ccc(Cl)cc1)c1nc(-c2ccccc2F)oc1NCc1ccccc1,?,-10%,34%[activator],?,/,/,-2.0%,/
CCOP(=O)(OCC)C(Nc1cccc([N+](=O)[O-])c1)c1ccc(OC)cc1 (stereo unspecified),-13%,/,-17%,-8%[46.1 µM],-7%,31%,/,1%
Cc1cc(C)n(-c2ccc(NC(=O)C3CCCCN3C(=O)c3cccs3)cc2)n1 (stereo unspecified),23%[46.1 µM],/,?,15%[46.1 µM],-10%,-1%,/,-2%
CC(=O)c1cccc(N(CC(=O)NC2CCCC2)C(=O)c2ccc(C)s2)c1,-8%[46.1 µM],/,7%,-17%[46.1 µM],12%,1%,/,0%
Cc1ccc(-n2c(C)nn(Cc3ccc([N+](=O)[O-])cc3)c2=O)cc1,-27%,/,-13%,-10%[46.1 µM],2%,-1%,/,1%
O=S(=O)(NN=C1CCCCCCC1)c1ccc(Br)cc1,0%,-1%,21%,9%[46.1 µM],2%[9.22 µM],-16%,-2.3%,-3%
CC1CCN(C(=O)c2cc(-c3ccc(Cl)c(Cl)c3)on2)CC1,?,-8%,0%,-2%,-31%,-18%,-7.5%,-1%
O=C(c1ccc2c(c1)N(Cc1ccccc1)C(=O)CS2)N1CCOCC1,1%,-1%,24%,0%,-17%,1%,2.3%,-9%
CCc1nc(SCC(=O)NCC2CCCO2)c2oc3ccccc3c2n1 (stereo unspecified),-26%,14%,-13%,?,-11%,-6%,-4.9%,10%
C=C1CCN([C@H](C(=O)Nc2ccc(OC)cc2)C(C)C)S(=O)(=O)c2ccccc21,/,/,-17%,/,1%,-8%,/,-2%
CCCNS(=O)(=O)c1ccc(OCC(=O)N2CCN(C)CC2)cc1,8%,-2%,/,1%,3%,5%,1.7%,-3%
CCOC(=O)c1c(C)[nH]c(C(=O)C(C)OC(=O)c2cccc(OCc3c(C)noc3C)c2)c1C (stereo unspecified),?,24%,?,?,13µM*,-2%,4.2%,-2%
C=CCN1C(=O)c2ccc(C(=O)NCCc3ccc(F)cc3)cc2C1=O,2%,/,12%,-2%,/,2%,/,/
CNCc1ccccc1Sc1ccc(O)c(O)c1,?,-5%,-26%,?,11%,0%,-2.1%,-19%
COC(=O)c1c(NC2=NS(=O)(=O)c3ccccc32)sc2c1CCC(C(C)(C)C)C2 (stereo unspecified),-2%,/,-23%,6%[46.1 µM],/,22%,/,/
COc1ccccc1OCC(=O)N(Cc1ccco1)Cc1ccccc1F,0%[46.1 µM],-4%,-4%,-12%[46.1 µM],/,/,-4.1%,/
Cn1ccnc1SCC(=O)c1cccc(C(F)(F)F)c1,0%,/,54%[activator],-1%[46.1 µM],1%,-4%,/,-1%
CC(=O)c1cccc(CN2CCN(CC=C(C)C)C(CCO)C2)c1 (stereo unspecified),-13%,/,-7%,3%[46.1 µM],5%,-8%,/,-2%
N=c1c2c(ncn1CCCO)Oc1c(ccc3ccccc13)C2c1ccccc1 (stereo unspecified),/,/,-27%,/,-6%,-10%,/,-3%
Cc1ccc(-n2nnnc2SCc2ccc(C(=O)O)cc2)cc1C,/,/,-9%,/,-40%,9%,/,1%
Cc1[nH]c(=O)[nH]c(=O)c1/C=N/NC(=O)[C@H](C)NC(=O)OC(C)(C)C,-8%,-3%,-14%,22%,-11%,-3%,0.5%,8%
Cc1ccc(CC(=O)Nc2cc(C)on2)cc1,10%,/,15%,8%,1%,40%,/,-2%
COc1cccc(OCCCN2CCCCC2)c1,1%,-8%,5%,1%,2%,-14%,7.0%,-8%
Cc1[nH]c(C)c(S(=O)(=O)N2CCN(c3ccccc3)CC2)c1C(=O)N1CCCCC1,/,/,-14%,/,-1%,9%,/,2%
CCOc1ccc(C2c3[nH]c4ccccc4c3CCN2C(=O)CSc2ccccc2)cc1 (stereo unspecified),6.3µM*,-3%,-9%,/,/,/,4.5%,/
CC(c1ccccc1)n1c(-c2ccncc2)n[nH]c1=S (stereo unspecified),5%,5%,-2%,3%[46.1 µM],2%,-1%,7.1%,1%
CCn1c(SCC(=O)NNC(=O)Cc2ccccc2)nnc1-c1ccccc1,-28%[14.3 µM],4%,-4%,4%,7%,-3%,5.2%,-6%
COc1ccc(C(CNC(=O)C(=O)Nc2ccc3c(c2)OCCO3)N2CCN(C)CC2)cc1 (stereo unspecified),1%,/,-14%,2%,/,-3%,/,3%
CCCN1C(=O)S/C(=C/c2ccc(N3CCOCC3)o2)C1=O,18%[46.1 µM],/,30%[activator],-6%[46.1 µM],-33%,?,/,-4%
O=S(=O)(NCC1CCCO1)c1cc(Cl)ccc1Br (stereo unspecified),5%,-7%,40%[activator],17%,-2%,-18%,4.1%,2%
O=C(NCCCN1CCCCC1)C1CCN(S(=O)(=O)N2CCC3(CC2)OCCO3)CC1,3%[46.1 µM],/,-15%,3%[46.1 µM],?,-3%,/,-28%
Cc1cc(C(F)F)n2nc(C(=O)Nc3ccc(F)c(Cl)c3)nc2n1,13%[46.1 µM],2%,-2%,?,/,/,-3.7%,/
CS(=O)(=O)N1CCc2cc(S(=O)(=O)NCCNS(=O)(=O)c3ccc4c(c3)CCN4S(C)(=O)=O)ccc21,-18%,/,26%,13%[46.1 µM],/,2%,/,-1%
CC(=O)c1ccc(N(CC(=O)NC2CCCCC2)C(=O)c2csnn2)cc1,-3%[46.1 µM],/,16%,14%[46.1 µM],-4%,-2%,/,-3%
CCOC(=O)CCNC(=O)N1CCCC(C(=O)c2ccccc2SC)C1 (stereo unspecified),/,/,4%,/,2%,3%,/,0%
COc1ccc(OC)c(S(=O)(=O)N2CCN(C(=O)c3ccco3)CC2)c1,8%[46.1 µM],/,-1%,-14%[46.1 µM],7%,14%,/,6%
O=C(CCC1CCCN(C(=O)Cc2cccc(F)c2)C1)N1CCN(c2ccccn2)CC1 (stereo unspecified),?,/,?,?,0%,-4%,/,0%
COc1ccc(-c2csc(NC(=O)CN3C(=O)CCC3=O)n2)c(OC)c1,-25%,18%,-13%,?,-10%,29%,-1.5%,23%
Cc1ccc(NC(=O)c2ccc(NCCc3ccccc3)c([N+](=O)[O-])c2)cc1F,?,?,-22%,-2%,-13%,-13%,-3.2%,-19%
CCn1c(SCC(=O)N(Cc2ccccc2)C2CCS(=O)(=O)C2)nc2ccccc2c1=O (stereo unspecified),-2%,?,0%,-22%&-22%,-7%,29%,-1.6%,3%
COc1ccc(N(CC(O)Cn2c3ccccc3c3ccccc32)S(=O)(=O)c2ccccc2)cc1 (stereo unspecified),-4%,16µM*,?,?,?,14%,33%[activator],2%
